CtBP-E1A blk: qHTS Assay for Inhibitors of the CtBP/E1A Interaction; CtBP / adenovirus E1A interaction (AlphaScreen); AlphaScreen GST-E1A/His-CtBP binding, 1536-well; active compounds read low; control for the full effect not named in the record; activity change, % (concentration not given with the values); hit rate 0.49% among 340,000; AID 651724, 2012; in the data active means activity change below about -65%; inconclusive means about -30% to -65%; inactive means above about -30%; also: % is scaled to controls: 0 for no effect and ±100 for the full control effect
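AlphaScreen with 125 nM GST-E1A and 125 nM His-CtBP (5X stocks) in Tris pH 8.0, 300 mM NaCl, BSA, Tween 20, TCEP. Compounds preincubated 2 h at 37 deg C, then glutathione donor/nickel acceptor beads added for 1 h at 37 deg C in dark.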
PINK1 modulator: A Quantitative High throughput Screen to Identify Chemical Modulators of PINK1 Expression. PINK1 immunofluorescence, high-content cytometry, 24 h. Potency, µM (doses to about 76.6 µM), for inactives: at the top dose activation (PINK1 increase), hits mostly activators. hit rate 0.2% among 410,000. AID 624263, 2012; active = well fitted activation curve with a large enough effect; inconclusive = small, poorly fitted or top-dose-only effect; inactive = flat fitted curve, though single readings scatter; cell line not stated here;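 also: potency is read from the fitted curve at half-maximal effect; % of control where 0% means no effect; nearly all actives have a fitted effect of over 65% in size; a mitochondrial uncoupler was the plate control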
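Cells are seeded, rested 12 hours, then given compound at five concentrations or DMSO for 24 hours. After fixation, blocking and antibody staining, PINK1 amount and mitochondrial localization are scored; CCCP serves as control.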
TRPML1 blocker: qHTS for Inhibitors of the Human Mucolipin Transient Receptor Potential 1 (TRPML1); Mucolipin-1 (Homo sapiens), Q9GZU1; TRPML1-inducible cells, Ca2+ dye fluorescence, FDSS; active compounds read low; inhibition of EC80 agonist-evoked calcium signal; activity change, negative = inhibition, % (concentration not given with the values); hit rate 0.02% among 390,000; AID 624415, 2012; in the data active means activity change below about -50%; inconclusive means about -30% to -50%; inactive means above about -30%;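 also: stimulus is agonist 54-4 at its EC80 concentration; % is scaled to controls: 0 for no effect and ±100 for the full control effect; the text of the record puts the active cut at -80%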
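Calcium fluorescence in TRPML1-DL cells induced overnight with Tet: a 110 s read after compound pin addition, then a 110 s antagonist read after challenge with 54-4 at 4 uM final (EC80).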
Six1-Eya2 inh: qHTS Assay for Inhibitors of the Six1/Eya2 Interaction. hit rate 0.56% among 360,000. Homeobox protein SIX1 (Homo sapiens) + Protein phosphatase EYA2 (Homo sapiens), …. AlphaScreen GST-Six1/His-Eya2 binding, biochemical; active compounds read low; control for the full effect not named in the record. AID 651725, 2012. activity change, % (test concentration not listed); in the data active = activity change below about -65%; inconclusive = about -30% to -65%; inactive = above about -30%; also: % is scaled to controls: 0 for no effect and ±100 for the full control effect
Target sequence (O00167 whole entry, looked up): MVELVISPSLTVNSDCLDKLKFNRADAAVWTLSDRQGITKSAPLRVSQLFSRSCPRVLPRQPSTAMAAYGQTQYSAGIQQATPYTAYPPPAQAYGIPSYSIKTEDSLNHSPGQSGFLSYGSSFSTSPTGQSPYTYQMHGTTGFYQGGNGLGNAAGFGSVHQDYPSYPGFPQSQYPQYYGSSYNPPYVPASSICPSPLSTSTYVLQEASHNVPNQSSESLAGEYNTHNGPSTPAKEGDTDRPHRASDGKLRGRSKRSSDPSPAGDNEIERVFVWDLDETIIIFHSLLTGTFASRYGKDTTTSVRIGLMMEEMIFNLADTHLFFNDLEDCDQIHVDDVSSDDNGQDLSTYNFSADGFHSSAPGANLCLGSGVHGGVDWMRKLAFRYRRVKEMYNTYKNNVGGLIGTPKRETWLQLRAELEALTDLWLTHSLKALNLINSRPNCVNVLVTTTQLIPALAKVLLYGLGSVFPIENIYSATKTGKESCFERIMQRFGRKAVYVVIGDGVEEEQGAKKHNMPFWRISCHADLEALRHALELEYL
Target sequence (Q15475 whole entry, looked up): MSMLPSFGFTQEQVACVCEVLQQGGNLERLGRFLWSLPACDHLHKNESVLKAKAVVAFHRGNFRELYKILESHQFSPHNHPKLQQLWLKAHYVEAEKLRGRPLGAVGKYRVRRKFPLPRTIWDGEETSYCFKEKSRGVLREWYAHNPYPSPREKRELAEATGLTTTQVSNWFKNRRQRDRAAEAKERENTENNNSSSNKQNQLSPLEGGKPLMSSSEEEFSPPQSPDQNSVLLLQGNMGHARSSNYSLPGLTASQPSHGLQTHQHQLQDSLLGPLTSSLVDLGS
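GST-Six1 + His-Eya2 (5X stock: 250/500 nM); Tris pH 8.0, 300 mM NaCl, 0.05% BSA, 0.02% Tween 20; GSH donor/Ni acceptor beads; 1 h 37 °C dark; AlphaScreen readout.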
TRPML1 ag: qHTS for Agonists of the Human Mucolipin Transient Receptor Potential 1 (TRPML1). TRPML1-expressing cells, Ca2+ dye fluorescence, FDSS; host cell line not named in the record; reference of the full effect not given here. hit rate 0.12% among 410,000. activation, % (test concentration not listed). AID 624414, 2012; in the data active = activation above about 50%; inconclusive = about 30% to 50%; inactive = below about 30%; also: 0% is about no effect; the text of the record puts the active cut at 80%
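Agonist activity was taken from a 110 s kinetic Ca2+ dye read on the FDSS after pinning compounds onto TRPML1-DL cells. The cells were seeded at 1,500/well with Tet inducer, incubated about 16 h, then dye-loaded at room temperature.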
D2 agonist: Beta-Arrestin HTS for Positive Allosteric Modulators of the Human D2 Dopamine Receptor: Agonists. hit rate 0.084% among 360,000. D(2) dopamine receptor (Homo sapiens), P14416. activation, % (no concentration beside the values). DiscoveRx PathHunter D2 beta-arrestin, luminescence, 90 min; 100% = 57 uM dopamine signal; in the data active = activation above about 40%; inconclusive = about 15% to 40%; inactive = below about 15%; also: compound concentration not given in the record; the text of the record calls up to 30% inactive
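DiscoveRx PathHunter D2 beta-arrestin cells (2,100/well) attached overnight, then compound-stimulated 90 min at 37 C in HBSS/10 mM HEPES/0.1% Tween-20 buffer; beta-galactosidase complementation read by luminescence after 1 h at ambient temperature. Dopamine 57 uM final (EC100) as control.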
* = called active by the depositor; ? = inconclusive; . = not tested or not shown; & = joins results of further samples; [ ] = remark or other dose.

Compound	CtBP-E1A blk	PINK1 modulator	TRPML1 blocker	Six1-Eya2 inh	TRPML1 ag	D2 agonist
CCc1ccccc1N(C(=O)c1snc(C(N)=O)c1N)C(C(=O)NCC1CCCO1)c1ccc(OC)c(OC)c1 (stereo unspecified)	6	1.2%	17	-3	-0.1	0.6
CS(=O)(=O)N(CC(=O)Nc1ccc2c(c1)OCO2)c1ccccc1	7	3.4%[38.3 µM]	-10	-1	0.1	-1.2
CC1(C)S[C@@H]2[C@H](NC(=O)Cc3ccccc3)C(=O)N2[C@H]1C(=O)O	9&13	5.0%&-2.0%	0&-17	0&16	0.5&2.3	-3.0&2.2
CSCCC(=O)N1CC[C@@H](N2CCN(c3ccccc3F)CC2)[C@H](O)C1	0	6.0%	12	1	1.1	11
COc1ccccc1-c1c(C)nn2c(N3CCN(c4ccc(Cl)cc4)CC3)cc(C)nc12	.	1.2%	-8	.	0.2	.
Cc1cc(C)nc(NC2=NCCN2C(=S)Nc2ccc(C)c(C)c2)n1	-8	7.3%	0	-1	0.7	-4.3
COc1ccc(S(=O)(=O)NC(=O)C2(C)CCN2C(=O)CC2CCCCC2)cc1OC (stereo unspecified)	-7	-0.6%	.	14	-0.2	-0.5
Cc1ccc(S(=O)(=O)NCC2CCC(C(=O)NC3CCCCC3)CC2)cc1 (stereo unspecified)	8	8.2%	1	-20	-1.0	1.4
Cc1noc(C)c1C(=O)N1CCCC1	-6	1.8%	-4	11	-0.4	-1.4
CSC(SC)=C(C#N)C(=O)c1ccccc1	7	4.3%	4	-1	0.5	0.3
CCCCn1c(N)c(N(CCOC)C(=O)C2CCN(S(=O)(=O)c3ccc(C)cc3C)CC2)c(=O)[nH]c1=O	0	2.4%	-7	7	0.6	-4.4
CC1CC(C)CN(C(=O)c2cccc(NC(=O)CC3SC(N4CCCCC4)=NC3=O)c2)C1 (stereo unspecified)	-10	0.7%	-4	2	2.5	-0.5
Cc1cc(NC(=O)CC(CN(C)S(=O)(=O)c2ccccc2)c2ccccc2)no1 (stereo unspecified)	-5	0.0%	28	-7	0.8	0.0
COc1ccc(N2C(=O)CSC(c3ccccc3)C2=O)cc1 (stereo unspecified)	0	0.9%	6	5	-0.1	-16
Cc1ccc(OCc2cc(C(=O)NCC(C)(C)N3CCOCC3)no2)cc1C	10	0.1%	-2	21	1.6	-2.2
Cc1nonc1NC(=O)c1ccc(Cl)c(S(=O)(=O)N2CCCCC2)c1	5	-0.8%	16	1	-1.5	-2.1
CN(C)S(=O)(=O)c1ccc(Cl)c(-c2nnc3n2CCCCC3)c1	6	0.0%	-12	2	0.0	2.6
CN(Cc1ccccc1)C(=O)CCn1c(=O)oc2ccccc21	6	-0.3%	2	5	-0.7	-7.7
Cc1cccn2c(=O)c3cc(C(=O)N4COCC4(C)C)n(Cc4ccccc4)c3nc12	5	0.7%	-10	30	0.1	-0.6
O=C(Cn1cc(COc2c(Br)cc(F)cc2Br)nn1)c1ccc(O)cc1	3	3.5%	5	5	-0.7	-4.9
Cc1nn(-c2ccccc2)c(C)c1NC(=O)COC(=O)C1CC(=O)N(CCc2ccccc2)C1 (stereo unspecified)	-6	0.1%	8	3	0.2	-2.9
C=CCOc1ccc(/C=C2/C(=O)ON=C2C)cc1OCC	12	-0.1%	0	3	-0.9	3.6
COCCn1c(=NC(=O)CCS(=O)(=O)c2ccccc2)sc2cc(C)ccc21	0	2.4%	4	3	-0.5	-2.7
CCc1nc(C)ccc1OCC(=O)N1CCc2c([nH]c3ccccc23)C1c1ccccn1 (stereo unspecified)	6	-1.1%	2	-12	2.0	-3.3
CC(NCC(O)COc1ccc(Br)cc1)c1ccccc1 (stereo unspecified)	-8	8.9%	-13	-1	-0.3	-1.2
Cc1cc(C)n(CC(=O)N2N=C(C(F)F)CC2(O)C(F)F)n1 (stereo unspecified)	-5	3.3%	14	2	-0.1	-1.7
Cc1ccc(S(=O)(=O)N2CCCC2C(=O)OCc2ccco2)cc1 (stereo unspecified)	0	25%[38.3 µM]	-10	-7	-0.1	-1.5
Cc1ccc(-n2nnnc2SCC(=O)c2cc(C)n(CC3CCCO3)c2C)cc1 (stereo unspecified)	-3	0.9%[38.3 µM]	21	-1	-0.1	-1.7
COC(=O)c1ccc(CN2CCC(CO)(Cc3ccccc3Cl)CC2)cc1	-5	-1.6%	37	4	1.8	-2.9
CN1C(=O)c2ccccc2C(C(=O)NCCCN2CCCC2)C1c1c[nH]c2ccccc12 (stereo unspecified)	35	-1.2%	-4	20	-1.0	-2.3
C/C(=C/CCC(C)(O)C1CC[C@@]2(C)[C@@H]3CC=C4[C@@H](CC[C@H](O[C@H]5O[C@@H](CO)[C@H](O)[C@@H](O)[C@@H]5O)C4(C)C)[C@]3(C)C(=O)C[C@]12C)CO[C@@H]1O[C@H](CO)[C@@H](O)[C@H](O)[C@H]1O (stereo partly specified)	2	-1.3%	0	4	-0.4	1.1
CCC(=O)Nc1cc(-c2nnc(OC)c3ccccc23)ccc1N1CCOCC1	0	-0.9%	1	-2	4.0	-2.6
COCCCn1c(SCC(=O)Nc2ccc(F)cc2)nc2c(sc3ccccc32)c1=O	.	3.5%	-1	.	-0.5	.
COC(=O)c1cc(COC(=O)c2ccc(OC)c(S(=O)(=O)N3CCCC3)c2)oc1C	-5	-2.0%	11	-1	2.1	0.5
CCOC(=O)c1ccc(NC(=O)CSc2nnc(-c3ccncc3)n2-c2ccccc2)cc1	.	0.1%	-17	.	-0.5	.
O=C(CCCn1c(=S)[nH]c2cc3c(cc2c1=O)OCO3)NC1CC1	-1	-1.5%	-5	2	-1.0	0.9
O=C(CCc1nc2sc3c(c2c(=O)[nH]1)CCCC3)NCCc1ccc(Cl)cc1	-6	-1.3%	0	1	0.0	-2.0
Cc1ccsc1CNC(=O)C1(C)CCN1C(C)C (stereo unspecified)	-23	-0.9%	.	6	-0.5	-6.3
O=C(NC(NC(=S)Nc1cccc(Cl)c1)C(Cl)(Cl)Cl)OCc1ccccc1 (stereo unspecified)	11	7.9µM*	0	-9	-0.1	1.4
CCN(CC)CCCN1C(=O)c2oc3ccccc3c(=O)c2C1c1cccnc1 (stereo unspecified)	-2	-2.1%	-5	0	-0.2	0.6
O=C(c1cn(Cc2ccccc2)nc1-c1cccnc1)N1CCc2ccccc2C1	0	0.6%	-6	-1	1.7	9.0
O=C(N/N=C\c1ccccc1)c1cccc(C(=O)N/N=C\c2ccccc2)n1	?	0.0%	8	-26	1.5	11
COCCn1c(SCC(=O)N(C)c2ccccc2)nc2c([nH]c3ccccc32)c1=O	12	7.4%	11	4	1.5	-5.2
C[C@H]1CN([C@@H](C)CO)C(=O)CCCn2cc(nn2)CO[C@@H]1CN(C)S(=O)(=O)c1cccs1	5	0.9%	18	4	0.0	-9.6
C[C@H](CO)N1C[C@H](C)[C@@H](CN(C)Cc2ccc3c(c2)OCO3)Oc2c(NC(=O)C3CCCCC3)cccc2C1=O	-16	0.7%	32	?	1.2	-2.0
CCSCc1nnc(SCC(=O)Nc2cccc(SC)c2)n1C	5	-1.3%	-8	-1	-1.3	-2.4
CCOc1ccc(CCNC(=O)COC(=O)c2cc(S(=O)(=O)N3CCOCC3)ccc2F)cc1OCC	3	1.4%	6	-8	0.9	-5.3
C=CCn1c(=O)c(C(=O)NCCc2ccc(Cl)cc2)c(O)c2cc(OC)c(OC)cc21	.	2.6%	.	-5	.	-1.8
CC(C)n1cnc2c(N(C)c3cccc(Cl)c3)nc(N(CCO)CCO)nc21	-8	1.2%	2	-18	-0.3	2.6
CN1CCN(C(=S)NC(=O)c2ccco2)CC1	7	2.0%	-5	0	0.1	-5.6
O=c1[nH]c2cc3c(cc2cc1CN(CCc1ccccc1)C(=S)NCCCN1CCOCC1)OCCO3	5	2.3%	.	-3	.	-3.3

Some entries already given with just PINK1 modulator, TRPML1 blocker and D2 agonist.
smiles	PINK1 modulator	TRPML1 blocker	D2 agonist
O=C(N/N=C\c1ccccc1)c1cccc(C(=O)N/N=C\c2ccccc2)n1	0.0%	8	11
CCSCc1nnc(SCC(=O)Nc2cccc(SC)c2)n1C	-1.3%	-8	-2.4

Of the compounds above, these contain an aryl methoxy group.
Compound	CtBP-E1A blk	PINK1 modulator	TRPML1 blocker	Six1-Eya2 inh	TRPML1 ag	D2 agonist
CCc1ccccc1N(C(=O)c1snc(C(N)=O)c1N)C(C(=O)NCC1CCCO1)c1ccc(OC)c(OC)c1 (stereo unspecified)	6	1.2%	17	-3	-0.1	0.6
COc1ccccc1-c1c(C)nn2c(N3CCN(c4ccc(Cl)cc4)CC3)cc(C)nc12	.	1.2%	-8	.	0.2	.
COc1ccc(S(=O)(=O)NC(=O)C2(C)CCN2C(=O)CC2CCCCC2)cc1OC (stereo unspecified)	-7	-0.6%	.	14	-0.2	-0.5
COc1ccc(N2C(=O)CSC(c3ccccc3)C2=O)cc1 (stereo unspecified)	0	0.9%	6	5	-0.1	-16
CCC(=O)Nc1cc(-c2nnc(OC)c3ccccc23)ccc1N1CCOCC1	0	-0.9%	1	-2	4.0	-2.6
COC(=O)c1cc(COC(=O)c2ccc(OC)c(S(=O)(=O)N3CCCC3)c2)oc1C	-5	-2.0%	11	-1	2.1	0.5
C=CCn1c(=O)c(C(=O)NCCc2ccc(Cl)cc2)c(O)c2cc(OC)c(OC)cc21	.	2.6%	.	-5	.	-1.8

Screening data: PubChem BioAssay, National Center for Advancing Translational Sciences (NCATS)
